Screening data from PubChem.
ID4 binder: ID4 (human) binding; P47928; small molecule microarray, Flag-ID4 binding, fluorescence F/B; calls only; 31,000 tested, 1.2% active; AID 624137;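 active means spot signal over background at p below 0.07 in all four prints; compounds were printed on slides so no solution concentration is given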;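 further: a binder raises fluorescence above local background on the spot; about 2 pmol printed per array spot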
Target sequence (P47928 whole entry, looked up): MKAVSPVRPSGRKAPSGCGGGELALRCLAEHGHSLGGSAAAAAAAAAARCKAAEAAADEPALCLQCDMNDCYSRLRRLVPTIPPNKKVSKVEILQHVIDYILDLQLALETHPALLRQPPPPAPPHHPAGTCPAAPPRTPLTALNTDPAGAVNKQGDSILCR
Calls only; i = inactive; + = active, no number. Not all compounds are listed. The share of hits here may be higher or lower than overall.

structure	ID4 binder
CCC(=O)N[C@@H]1CC[C@@H](CC(=O)NCc2cc(F)cc(F)c2)O[C@H]1CO	i
COc1cc(Cc2nccc3cc(OC)c(OC)cc23)c(NC(=O)c2cc(F)c(F)cc2Cl)cc1OC	i
COC(=O)c1ccc(NC(=O)CSc2nc3ccccc3c(=O)n2-c2ccc(C)cc2)cc1	i
CCn1c(SCC(=O)c2ccc(Br)cc2)nnc1-c1ccco1	i
COC(=O)c1cc(OC)c(OC)cc1NC(=O)COc1ccccc1F	i
C[C@H]1CN([C@@H](C)CO)C(=O)c2cc(C#CC3(O)CCCC3)cnc2O[C@H]1CN(C)C(=O)C1CCOCC1	i
Cc1cc(OCC(=O)NCc2ccccn2)c(C)cc1Br	i
CC(C)C#Cc1cnc2c(c1)C(=O)N([C@H](C)CO)C[C@H](C)[C@H](CN(C)C(=O)c1ccccc1F)O2	i
CCCN(C)C[C@H]1Oc2ncc(C#CCN(C)C)cc2C(=O)N([C@@H](C)CO)C[C@H]1C	i
COc1ccc(N(CC(=O)Nc2ccc(I)cc2C)S(C)(=O)=O)cc1Cl	i
CCn1c(SCC(=O)Nc2cccc(SC)c2)nnc1-c1ccc(Cl)cc1	i
O=C1CCCCCN1CP(=O)(O)CN1CCCCC1	i
CC(=O)N(O)CCCCCNC(=O)CCC(=O)N(O)CCCCCNC(=O)CCC(=O)N(O)CCCCCN	i
N#Cc1c(Nc2ccccc2)c(C=NCCN2CCOCC2)c[nH]c1=O	i
O=C(CSc1nnc(Cc2ccccc2)o1)N1c2ccccc2Sc2ccccc21	i
C[C@H]1CN([C@@H](C)CO)S(=O)(=O)c2ccc(-c3cncnc3)cc2O[C@@H]1CN(C)C(=O)C1CC1	i
CC(C)C[C@@H]1NC(=O)[C@@H]2C[C@H](C(=O)NCCCCCCN(C)C)[C@H](c3ccc(O)cc3)N2C1=O	i
CN(C)CCCNC(=O)C[C@@H]1CC[C@@H](NC(=O)Cc2cccnc2)[C@@H](CO)O1	i
O=C(c1ccc(Cl)cc1)c1ccc(CSc2nnc(-c3ccccc3)o2)o1	i
CCN1CCN(C(=O)CN(c2cccc([N+](=O)[O-])c2)S(C)(=O)=O)CC1	i
O=C(C[C@@H]1CC[C@@H](NC(=O)Nc2ccc(C(F)(F)F)cc2)[C@@H](CO)O1)NCCN1CCCC1	i
COc1ccc(NC(=O)CSc2nnc(-c3ccccc3)n2-c2ccccc2)c([N+](=O)[O-])c1	i
C[C@H]1CN([C@@H](C)CO)C(=O)c2ccccc2-c2ccccc2CO[C@@H]1CN(C)Cc1cccnc1	i
Cc1cc(N(CC(=O)Nc2ccc3c(c2)OCCO3)S(C)(=O)=O)ccc1Br	i

Shown with each value named: part of the list above
Molecule: CCN1CCN(C(=O)CN(c2cccc([N+](=O)[O-])c2)S(C)(=O)=O)CC1
  ID4 binder: i
Molecule: O=C(C[C@@H]1CC[C@@H](NC(=O)Nc2ccc(C(F)(F)F)cc2)[C@@H](CO)O1)NCCN1CCCC1
  ID4 binder: i
Molecule: Cc1cc(N(CC(=O)Nc2ccc3c(c2)OCCO3)S(C)(=O)=O)ccc1Br
  ID4 binder: i
Molecule: COc1ccc(NC(=O)CSc2nnc(-c3ccccc3)n2-c2ccccc2)c([N+](=O)[O-])c1
  ID4 binder: i

(further entries)
structure	ID4 binder
CO[C@@H](CN(C)C(=O)c1cc(Cl)cc(Cl)c1)[C@H](C)CN(C(=O)Nc1ccc(F)cc1)[C@@H](C)CO	i
COCCNC(=O)c1ccccc1NC(=O)c1ccco1	i
C[C@@H]1CN([C@@H](C)CO)C(=O)c2cc(C#CCN(C)C)cnc2O[C@@H]1CN(C)C(=O)c1ccc(F)cc1	i
COc1ccc(CCN=C2CCc3ccccc3N2)cc1OC	i
O=C(CCOc1ccccc1)Nc1nc2c(ccc3ccccc32)s1	i
Cc1nc(-c2ccccc2)sc1C(=O)C1C(=O)C(=O)N(CCN(C)C)C1c1cccc([N+](=O)[O-])c1 (configuration not stated)	i
O=C1O[C@@H](c2ccccc2)[C@@H](c2ccccc2)N2[C@@H](c3ccc(OCCO)cc3)[C@]3(C(=O)Nc4ccc(C#CC5(O)CCCCCC5)cc43)[C@@H](C(=O)N3CCCCCCC3)[C@H]12	i
Cn1nnnc1SCC(=O)Nc1ccc(F)c(F)c1	i

Of the compounds above, these have two or more sulfur atoms.
structure	ID4 binder
CCn1c(SCC(=O)Nc2cccc(SC)c2)nnc1-c1ccc(Cl)cc1	i
O=C(CSc1nnc(Cc2ccccc2)o1)N1c2ccccc2Sc2ccccc21	i

Next structures
structure	ID4 binder
O=C(C[C@@H]1CC[C@@H](NC(=O)C2CC2)[C@H](CO)O1)NCC1CC1	i
O=C(C[C@H]1C[C@H]2c3cc(NS(=O)(=O)c4ccccc4)ccc3O[C@H]2[C@H](CO)O1)NC1CCCCC1	i
CC1(C)Cc2nc3nc(SCC(=O)c4ccc(Br)cc4)n(-c4ccccc4)c(=O)c3cc2CO1	i
COc1ccc(-c2cc(C(F)(F)F)nc(SCC(=O)Nc3ccc(C)cc3)n2)cc1	i
O=C(COc1ccccc1[N+](=O)[O-])Nc1ccc2oc(=O)ccc2c1	i
Cc1ccccc1-c1nc(S(=O)(=O)c2ccc(Br)cc2)c(NCc2cccnc2)o1	i
O=C(CSc1nnc(Nc2ccccc2)n1-c1ccccc1)Nc1ccccc1Cl	i
COc1ccccc1NC(=O)CSc1nc2nc(C)cc(C)c2c(=O)[nH]1	i
CCCc1cn(CC[C@@H]2CC[C@@H](NC(=O)C3CCCCC3)[C@@H](CO)O2)nn1	i
O=C1C(=O)N(Cc2cccnc2)C(c2ccccn2)C1C(=O)c1cccs1 (configuration not stated)	i
CC(=O)Nc1cccc(O)c1	i
COC(=O)C(CC#Cc1ccc2c(c1)[C@]1(C(=O)N2)[C@H](c2ccccc2OCCO)N2[C@H](c3ccccc3)[C@H](c3ccccc3)OC(=O)[C@H]2[C@@H]1C(=O)N1CCN(c2ncccn2)CC1)C(=O)OC	i
O=C(Nc1ccc(OCc2nc3ccccc3s2)cc1)c1ccc(Cl)cc1	i
Cc1ccccc1NC(=O)CSc1cc(C)c2ccccc2n1	i
C/C=C/c1cnc2c(c1)C(=O)N([C@H](C)CO)C[C@@H](C)[C@H](CN(C)C(=O)NC1CCCC1)O2	i
COc1ccc(NC(=O)Nc2ccc3c(c2)[C@@H]2C[C@H](CC(=O)N[C@@H](C)c4ccccc4)O[C@@H](CO)[C@@H]2O3)cc1	i

2 compounds picked at random from those above:
structure	ID4 binder
COC(=O)C(CC#Cc1ccc2c(c1)[C@]1(C(=O)N2)[C@H](c2ccccc2OCCO)N2[C@H](c3ccccc3)[C@H](c3ccccc3)OC(=O)[C@H]2[C@@H]1C(=O)N1CCN(c2ncccn2)CC1)C(=O)OC	i
COc1ccc(NC(=O)Nc2ccc3c(c2)[C@@H]2C[C@H](CC(=O)N[C@@H](C)c4ccccc4)O[C@@H](CO)[C@@H]2O3)cc1	i

The list goes on.
SMILES,ID4 binder
COc1ccc(S(=O)(=O)N2CCN(CCO)CC2)cc1-c1nnc2c3ccccc3c(C)nn12,i
C/C=C/c1cnc2c(c1)C(=O)N([C@H](C)CO)C[C@@H](C)[C@H](CN(C)Cc1ccc3c(c1)OCO3)O2,i
CC(C)N1C(=O)[C@@]2(Cc3ccccc31)c1ccccc1C(=O)N(Cc1ccccc1)[C@H]2c1ccc(CO)cc1,i
CSc1ccc(Cn2cccc2C2=NC(C(C)C)CO2)cc1 (configuration not stated),i
C[C@H](CO)N1C[C@H](C)[C@H](CN(C)CC2CCOCC2)Oc2ncc(C#Cc3ccncc3)cc2C1=O,i
CCCc1cn(CC[C@H]2CC[C@@H](NC(=O)C3CCCC3)[C@@H](CO)O2)nn1,i
COc1ccccc1-c1ccc([C@@H]2[C@@H](C#N)N(C(=O)NC(C)C)[C@@H]2CO)cc1,i
CCC(=O)N(C(=O)CC)c1cc2oc3ccccc3c2cc1OC,i
C[C@@H]1CN([C@H](C)CO)C(=O)c2cc(C3=CCCC3)cnc2O[C@@H]1CN(C)C(=O)C1CCC1,i
CCOC(=O)Nc1ccc2c(c1)N(C(=O)CN1CCN(C)CC1)c1ccccc1CC2,i
COCC#Cc1ccc2c(c1)O[C@H](CN(C)CC1CC1)[C@H](C)CN([C@H](C)CO)S2(=O)=O,i
CCCC(=O)Nc1ccc2c(c1)OC[C@@H](C)N(Cc1ccccn1)C[C@@H](C)[C@H](OC)CN(C)C2=O,i
O=C(O)c1ccccc1-c1ccccc1C(=O)NCc1ccco1,i
Cc1ccccc1NC(=O)CN(c1ccc(Br)cc1)S(C)(=O)=O,i
O=C(CSc1nc2sc3c(c2c(=O)n1Cc1ccccc1)CCCCC3)c1ccccc1,i
COc1ccc(S(=O)(=O)N(CC(N)=O)c2ccc(C)cc2)cc1Br,i
C[C@@H]1CN([C@H](C)CO)C(=O)CCCn2nncc2CO[C@H]1CN(C)CC1CCCCC1,i
COc1ccc(Cl)cc1N(CC(=O)N1CCN(c2cccc(Cl)c2)CC1)S(C)(=O)=O,i
COc1ccc(OC)c(NC(=O)CSc2nnc(-c3ccc(F)cc3)n2C)c1,i
Cc1cccc(CN(C)C[C@H]2OCc3cn(nn3)CCCC(=O)N([C@@H](C)CO)C[C@H]2C)c1,i
C[C@@H]1CN([C@H](C)CO)C(=O)c2cc(-c3cccc(F)c3)cnc2O[C@@H]1CN(C)C(=O)C1CCC1,i
CC(C)NC(=O)N[C@H]1CC[C@@H](CC(=O)NCCCN(C)C)O[C@@H]1CO,i
COCC#Cc1ccc2c(c1)O[C@@H](CN(C)CC1CCCC1)[C@H](C)CN([C@@H](C)CO)S2(=O)=O,i
COc1cccc(-c2cnc3c(c2)C(=O)N([C@@H](C)CO)C[C@H](C)[C@H](CN(C)Cc2ccncc2)O3)c1,i
CCN(CC(=O)Nc1ccc(OC)c(Cl)c1)S(=O)(=O)c1ccc2ccccc2c1,i
C[C@@H]1CN([C@@H](C)CO)S(=O)(=O)c2ccc(C#Cc3ccccc3)cc2O[C@@H]1CN(C)C,i
COc1ccccc1NC(=O)c1ccc(CSc2nnnn2-c2ccccc2)cc1,i
COc1cc(NC(=O)Cn2nc(C(F)(F)F)c(Cl)c2C)cc([N+](=O)[O-])c1,i
CC(C)NC(=O)N(C)C[C@@H]1Oc2c(cccc2N(C)C)C(=O)N([C@@H](C)CO)C[C@H]1C,+
Cc1ccc(-c2nnc(SCC(=O)Nc3ccccc3C(C)(C)C)n2C)cc1,i
O=C(C[C@H]1C[C@H]2c3cc(NC(=O)NC4CCCC4)ccc3O[C@H]2[C@@H](CO)O1)NCCc1ccccc1,i
Cc1ccc(-c2cnc3c(c2)C(=O)N([C@@H](C)CO)C[C@H](C)[C@H](CN(C)Cc2ccccc2F)O3)cc1,i
O=C(N[C@@H]1CC[C@H](CC(=O)N2CCN(c3ccccc3)CC2)O[C@@H]1CO)c1ccncc1,i
CC(C)CC#Cc1cnc2c(c1)C(=O)N([C@@H](C)CO)C[C@H](C)[C@@H](CN(C)C(=O)CC1CC1)O2,i
C[C@@H]1CN([C@H](C)CO)S(=O)(=O)c2ccc(C3=CCCC3)cc2O[C@H]1CN(C)C(=O)c1ccccn1,i
Cc1cc(C)nc(NS(=O)(=O)c2ccc(NC(=O)c3ccc(C(=O)c4ccccc4)cc3)cc2)n1,+
Cc1nc(-c2ccccc2)sc1C(=O)C1C(=O)C(=O)N(CCCN2CCOCC2)C1c1cccs1 (configuration not stated),i
Cc1ccccc1-c1ccc2c(c1)O[C@@H](CN(C)Cc1ccncc1)[C@@H](C)CN([C@H](C)CO)S2(=O)=O,i
O=C(Cn1cnc2scc(-c3ccccc3)c2c1=O)Nc1cc(Cl)cc(Cl)c1,i
COc1ccc(CCNc2cc(C)c3cccc(OC)c3n2)cc1OC,i
Cc1cc(C)n2nc(SCC(=O)Nc3cccc([N+](=O)[O-])c3)nc2n1,i
C[C@H](O)C#Cc1cnc2c(c1)C(=O)N([C@@H](C)CO)C[C@@H](C)[C@@H](CN(C)Cc1cccc(F)c1)O2,i
C[C@@H]1CN([C@H](C)CO)C(=O)c2cc(Br)cnc2O[C@H]1CN(C)C(=O)C1CC1,i
NC(=O)c1ccc(NCCCN2CCOCC2)c([N+](=O)[O-])c1,i
C=CCN1C(=O)[C@@]2(O[C@@H](CCn3cc([C@H](O)c4ccccc4)nn3)[C@H]([Si](C)(C)c3ccc(OC)cc3)[C@H]2C)c2cc(N3C(=O)c4cccc5cccc3c45)ccc21,i
C[C@@H]1CN([C@H](C)CO)C(=O)c2cc(C#CC3CCCCC3)cnc2O[C@@H]1CN(C)Cc1cccnc1,i
COc1ccccc1CNC(=O)C[C@H]1C[C@@H]2c3cc(N(C)C)ccc3O[C@@H]2[C@@H](CO)O1,i
Cc1c(NC(=O)CN(c2cccc(Cl)c2Cl)S(C)(=O)=O)cccc1[N+](=O)[O-],i
Cc1ccc(-n2c(C)nnc2SCC(=O)Nc2ccc(Cl)cc2Cl)cc1,i
CC(=O)N(C)C[C@@H]1Oc2ncc(-c3ccccc3C)cc2C(=O)N([C@@H](C)CO)C[C@@H]1C,i
O=C(NCCCN1CCCC1=O)c1cc(-c2cccnc2)nc2ccc(Br)cc12,i
C[C@@H]1CN([C@@H](C)CO)C(=O)c2cc(-c3ccccc3)cnc2O[C@H]1CN(C)C,i
CCOC(=O)c1sc2ncn(CC(=O)Nc3ccc(OC)cc3)c(=O)c2c1C,i
Cc1ccc(NC(=O)c2sc3ncn(CC(=O)Nc4sc5c(c4C#N)CCC5)c(=O)c3c2C)c(C)c1,i
COc1ccc(OC(C)C(=O)Nc2ccc(OC)c(OC)c2)cc1 (configuration not stated),i
Cc1cc(C)c(C)c(OCC(=O)NCc2ccccn2)c1,i
COc1ccc(C2CC(c3cccs3)=NN2C(=O)CCC(=O)O)cc1 (configuration not stated),i
O=C(O)COc1ccc(Cl)cc1CO,i
Cn1c(SCc2nc(-c3ccc(Br)cc3)no2)nnc1-c1ccco1,i
COc1cccc(C#Cc2ccc([C@H]3[C@@H](CO)N(C(=O)C4CCC4)[C@H]3C#N)cc2)c1,i
COc1cc([N+](=O)[O-])ccc1NC(=O)CSc1nc2c(c(C(F)(F)F)n1)CCCC2,i
COc1ccccc1NC(=O)N[C@@H]1CC[C@H](CC(=O)N2CCC(Cc3ccccc3)CC2)O[C@H]1CO,i
